High-throughput results from PubChem.
ALR H2O2 inh: inhibitors of human ALR sulfhydryl oxidase, primary screen, biochemical, H2O2 detection, HRP-luminol luminescence, single point; FAD-linked sulfhydryl oxidase ALR (Homo sapiens), P55789; inhibition, % (no concentration beside the values); AID 485317, 2010; purified ALR, DTT oxidation; hit rate 3.8% among 290,000;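 active = mean and each replicate at 75% or more; inconclusive = only one of the two met; inactive = neither met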;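 note: stock transfer was 7.5 nL into about 7.5 µL; 0% = neutral wells and 100% = wells with inactivated enzyme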
RanGTP-Impb inh: inhibitors of RanGTP-importin-beta interaction, primary screen, biochemical, FRET, CFP-Ran, YFP-importin-beta, homogeneous; cell-free CFP-Ran/YFP-importin-beta FRET ratio; inhibition, % (concentration not given with the values); hit rate 1.1% among 300,000; AID 2216, 2009;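 active = most replicates above 15%; inconclusive = exactly half above 15%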;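 note: 0% = DMSO wells and 100% = Ran loaded with GDP instead of GTP; wells of about 40 µL received 100 nL stock; the first replicate is given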
Beta2AR agonist: beta2AR agonists driving receptor internalization, primary screen, cell-based, FAP fluorogen, flow cytometry; Beta-2 adrenergic receptor (Homo sapiens), P07550; Am2.2-beta2AR cells; reference of the scale not given here; response, % (concentration not given with the values); hit rate 0.43% among 340,000; AID 504454, 2011;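 active = response above a set limit, near 3 SD of response in nonfluorescent compounds, cut at about 42% in these data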;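 note: stock transfer was 100 nL into about 11 µL; a reference agonist was the positive control; negative values mostly stem from fluorescent compounds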
Calb FLC: C. albicans growth inhibition with fluconazole, primary screen, CaCi-2 strain, Alamar Blue fluorescence | C. albicans CaCi-2 (fluconazole-resistant clinical isolate) + fluconazole, 48 h | growth inhibition, % (no concentration beside the values) | hit rate 0.57% among 300,000;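 active = most replicates above 75%; inconclusive = exactly half above 75%; inactive = most below 75%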;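 note: all wells also contain fluconazole at 8 µg/ml as a sub-toxic cotreatment; 0% = median of DMSO wells and 100% = median of geldanamycin control wells; wells of about 8 µL received 7.5 nL stock; the first replicate is given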
HNF4A DNA FP: change in binding of human HNF4A to DNA, primary screen, biochemical, fluorescence polarization, FITC-DNA. Hepatocyte nuclear factor 4-alpha (Homo sapiens), P41235. 1 h. activity change, % at 10 µM. hit rate 0.3% among 360,000. AID 1224865, 2016; in the data active = activity change above about 30%, passing the limit was not always enough;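 note: controls were the assay level and a saturating level of protein; the project sought stronger binding though the title names inhibitors; some compounds called inactive have numbers as strong as hits; positive values seem to mean higher polarization but the record does not say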
Vif A3G: inhibitors of Vif binding to APOBEC3G peptide, primary screen, biochemical, TR-FRET, GST-Vif 1-94, biotin-A3G peptide, dose response retest (AID 1117319) | Virion infectivity factor (Human immunodeficiency virus type 1 group M subtype B (isolate … | TR-FRET GST-Vif / biotin-A3G peptide binding; higher % means a stronger effect; test concentration not given here; strong numbers were not always called active | inhibition, %; hits with a dose series show IC50 in µM | hit rate 0.57% among 260,000;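 active = above the screen mean plus three standard deviations and confirmed in dose response; inconclusive = results disagree or hit not tested in dose response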;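 note: Vif residues 1-94 fused to GST binding biotinylated APOBEC3G peptide 110-148; 0% = full assay without inhibitor and 100% = GST in place of GST-Vif; retest series ran down from 100 µM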
LANA-H2B inh: blockers of LANA interaction with H2A/H2B – biochemical, FP readout, HTS, primary screen | cell-free LANA-H2A/H2B peptide, fluorescence polarization | inhibition, % (concentration not given with the values) | hit rate 0.6% among 320,000; in the data active = inhibition mostly above about 10%, no sharp cut-off; inactive = mostly below about 6.7%;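 note: stock transfer was 7.5 nL into about 10 µL; 0% = median of vehicle wells and 100% = median of positive control wells; one replicate is shown; the record names a cut of 25% in any replicate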
Target sequence (Q9QR71 whole entry, looked up): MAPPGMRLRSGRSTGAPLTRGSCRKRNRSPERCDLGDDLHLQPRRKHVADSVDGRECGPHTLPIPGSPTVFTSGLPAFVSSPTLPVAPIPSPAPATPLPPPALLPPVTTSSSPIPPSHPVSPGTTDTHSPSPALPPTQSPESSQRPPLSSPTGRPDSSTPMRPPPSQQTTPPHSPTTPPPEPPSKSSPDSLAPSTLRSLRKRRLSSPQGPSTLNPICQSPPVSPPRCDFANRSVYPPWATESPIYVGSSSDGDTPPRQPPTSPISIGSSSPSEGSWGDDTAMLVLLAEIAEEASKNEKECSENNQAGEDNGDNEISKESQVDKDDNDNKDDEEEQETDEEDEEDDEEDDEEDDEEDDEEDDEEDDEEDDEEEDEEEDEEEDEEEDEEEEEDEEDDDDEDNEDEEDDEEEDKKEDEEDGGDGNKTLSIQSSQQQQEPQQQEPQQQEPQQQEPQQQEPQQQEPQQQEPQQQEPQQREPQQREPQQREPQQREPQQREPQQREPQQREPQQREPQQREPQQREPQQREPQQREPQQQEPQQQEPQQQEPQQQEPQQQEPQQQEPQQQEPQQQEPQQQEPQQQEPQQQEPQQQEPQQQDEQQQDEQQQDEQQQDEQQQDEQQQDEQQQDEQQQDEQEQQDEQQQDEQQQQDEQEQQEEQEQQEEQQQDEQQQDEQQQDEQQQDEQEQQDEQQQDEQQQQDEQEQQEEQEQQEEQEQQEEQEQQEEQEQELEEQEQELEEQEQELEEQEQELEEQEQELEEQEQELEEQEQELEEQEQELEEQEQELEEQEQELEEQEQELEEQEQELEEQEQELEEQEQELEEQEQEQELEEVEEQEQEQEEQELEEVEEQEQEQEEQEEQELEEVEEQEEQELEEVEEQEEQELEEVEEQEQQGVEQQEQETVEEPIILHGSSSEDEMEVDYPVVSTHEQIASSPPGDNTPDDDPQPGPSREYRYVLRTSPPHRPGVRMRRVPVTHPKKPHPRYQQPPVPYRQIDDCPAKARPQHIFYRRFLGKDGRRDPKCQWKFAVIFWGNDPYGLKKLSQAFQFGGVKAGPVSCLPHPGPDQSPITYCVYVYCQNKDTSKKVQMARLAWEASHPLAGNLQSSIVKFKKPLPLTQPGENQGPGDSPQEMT
Numbers without * were called inactive; ? = inconclusive; . = not tested or not shown. Rows are unselected; 6.3% or so of the library scored in one or more.

SMILES	ALR H2O2 inh	RanGTP-Impb inh	Beta2AR agonist	Calb FLC	HNF4A DNA FP	Vif A3G	LANA-H2B inh
O=C1NC(c2ccccc2)=C(c2nc3ccccc3s2)C(c2ccc(O)cc2)N1 (stereo not given)	-13	4.0	16	22	2.4	?	0.3
CCn1nc(NC(=O)c2ccco2)c2cc3ccccc3nc21	-1	30*	2	10	6.9	31%	-4.6
O=C1C2C3CC(C(Br)C3Br)C2C(=O)N1c1nccs1 (stereo not given)	-8	0.0	4	-2	4.4	.	-6.5
O=C1CSC(c2ccccn2)N1c1cccc(Cl)c1 (stereo not given)	99*	-0.8	6	-18	-3.1	-9%	-3.6
COCCCNc1oc(COc2ccc(Cl)cc2Cl)nc1C#N	-3	-0.6	6	-5	3.6	-1%	1.7
CCSc1nnc(-c2ccc(Cl)cc2)c2ccccc12	-22	-0.7	-13	?	1.4	-13%	-3.9
O=C(CSc1nnc(-c2ccc(S(=O)(=O)N3CCCC3)cc2)o1)NCc1ccccc1	-5	-1.2	4	-11	-8.9	2%	2.5
Cc1ccc2c(c1)C(=O)N1[C@H]3c4cc(C)ccc4OC[C@@H]3[C@H](c3ccccc3)[C@]1(C)C(=O)N2	0	.	1	.	0.7	.	104*
CCn1c(NCc2cc(OC)ccc2OC)nc2ccccc21	4	-0.9	0	-22	-2.9	4%	-0.8
COc1ccc(-c2cc(C(=O)N/N=C/c3ccc(OC)c(COCC(F)(F)C(F)F)c3)c3ccccc3n2)c(OC)c1	8	2.3	-4	-1	0.2	26µM*	-4.1
COC(=O)C(NC(=O)c1ccc(C)cc1)(Nc1cccc(C)n1)C(F)(F)F (stereo not given)	-3	-0.5	-4	2	1.2	0%	-3.4
CCc1cc2c(COC(=O)c3c(C)noc3C)cc(=O)oc2cc1O	.	18*	2	5	2.6	-14%	1.4
O=C(NCC(c1ccco1)N1CCc2ccccc2C1)c1ccccc1Cl (stereo not given)	3	3.3	3	29	2.9	-6%	3.3
COc1ccccc1NC(=O)NCCN1CCN(C(=O)Nc2ccccc2OC)CC1	-16	-1.8	-9	19	1.7	?	1.8
COc1ccc(CC(=O)OCC(=O)N2CCCc3ccccc32)cc1	-4	0.7	5	-8	-1.8	-10%	1.6
O=C(O)/C=C/C(=O)Nc1ccccc1C(=O)Nc1ccccc1	-5	2.9	9	-7	-0.3	5%	-0.2
Oc1c(Cl)cc(Cl)cc1/C=N/c1nccs1	18	-6.0	7	-4	3.1	10%	-1.1
CCN1C(=O)c2ccc(C(=O)NCc3ccco3)cc2C1=O	-21	0.1	3	-13	1.8	2%	1.2
Cc1noc(C)c1S(=O)(=O)N(C)C[C@H]1Oc2ccc(NC(=O)NC(C)C)cc2C(=O)N([C@H](C)CO)C[C@@H]1C	-8	.	-3	.	0.1	.	-8.2
CC(=O)c1cccc(NC(=O)Cn2nc(-c3ccccc3Cl)ccc2=O)c1	-3	-0.6	0	-31	1.1	-11%	2.2
COCCN1C(=O)/C(=C/c2ccc(N3CCCC3)cc2C)SC1=S	-5	.	.	.	120	.	-3.7
CC(C)Cn1c(-c2csc(C(C)C)c2)n[nH]c1=S	94*	2.8	4	-55	2.3	20%	-0.8
Cc1cc(NCc2ccccn2)ccc1Br	99*	2.8	7	11	-3.3	-7%	2.0
COc1ccc(-n2c(SCC(=O)NNC(=O)c3ccccc3C)nnc2-c2ccncc2)cc1	0	-5.7	4	-1	0.3	-1%	-0.8
CC(C)NC(=O)C(=O)Nc1cc2c3c(c1)C(C)C(=O)N3CCC2 (stereo not given)	-17	0.7	-2	2	1.8	-4%	1.8
Cc1nc2ccc(NC(=O)Cc3cccs3)cc2s1	-9	-0.7	-9	-10	-1.1	84µM*	0.6
COC(=O)NNC(=O)c1ccc(C(C)(C)C)cc1	-3	-3.7	0	4	5.5	1%	-3.3
COc1ccc2c(c1OC)C(=O)N1C2SC[C@H]1C(=O)NCCC(C)C (stereo not given in full)	-1	-3.8	-1	-5	-0.9	4%	-1.9
CC(NC(=S)NNS(=O)(=O)c1cccc([N+](=O)[O-])c1)c1ccccc1 (stereo not given)	11	1.2	-2	-8	-1.1	-6%	2.3
CCC1CCCCN1C(=O)CCn1c(=O)oc2ccccc21 (stereo not given)	.	-1.2	7	1	1.3	.	1.9
Cc1c(C(=O)Nc2ccncc2)sc2nc(-c3ccc(F)cc3)cn12	-5	0.5	7	0	22	?	-1.6
O=C(Cc1ccc(F)cc1)N1CCN=C1SCc1cccc([N+](=O)[O-])c1	.	2.2	-7	6	-4.3	-4%	.
CC1CCN(C(=O)CN(c2ccccc2)S(=O)(=O)N(C)C)CC1	.	-5.6	-3	12	2.2	.	1.2
Cc1onc(-c2ccccc2)c1C(=O)N/N=C/c1cccs1	-17	4.7	-2	5	4.6	.	5.0
CC1CCCCN1C(=O)COC(=O)C1CCN(S(=O)(=O)c2ccc(Cl)c(C(F)(F)F)c2)CC1 (stereo not given)	-13	2.1	0	-1	-3.5	5%	-3.7
Cc1ccc(N2C(=O)C(Cl)=C(N3CCN(C)CC3)C2=O)c(C)c1	18	2.2	1	9	0.0	33%	1.6

5 compounds already listed, arranged by formula weight, lowest first.
SMILES	ALR H2O2 inh	RanGTP-Impb inh	Beta2AR agonist	Calb FLC	HNF4A DNA FP	Vif A3G	LANA-H2B inh
COC(=O)NNC(=O)c1ccc(C(C)(C)C)cc1	-3	-3.7	0	4	5.5	1%	-3.3
CCC1CCCCN1C(=O)CCn1c(=O)oc2ccccc21 (stereo not given)	.	-1.2	7	1	1.3	.	1.9
CC(C)NC(=O)C(=O)Nc1cc2c3c(c1)C(C)C(=O)N3CCC2 (stereo not given)	-17	0.7	-2	2	1.8	-4%	1.8
O=C(Cc1ccc(F)cc1)N1CCN=C1SCc1cccc([N+](=O)[O-])c1	.	2.2	-7	6	-4.3	-4%	.
CC(NC(=S)NNS(=O)(=O)c1cccc([N+](=O)[O-])c1)c1ccccc1 (stereo not given)	11	1.2	-2	-8	-1.1	-6%	2.3

Remaining list, next part
SMILES	ALR H2O2 inh	RanGTP-Impb inh	Beta2AR agonist	Calb FLC	HNF4A DNA FP	Vif A3G	LANA-H2B inh
COCc1cc(C)nc(SCc2ccccc2)c1C#N	1	2.2	-4	10	3.1	.	0.4
CCC(C)n1c(-c2cc(OC)c(OC)c(OC)c2)nc2nc3ccccc3nc21 (stereo not given)	-3	6.2	.	12	.	4%	-2.5
O=C(COC(=O)c1cc(=O)[nH]c2ccccc12)NC1CCCCCCC1	27	2.1	-2	1	4.0	3%	-4.8
CCOc1cc(-c2sc(Nc3ccccc3)n[n+]2C)ccc1OC	0	-2.0	-4	16	-2.7	.	1.5
CC(C)C(c1nnnn1C1CCCCC1)N1CCc2ccccc21 (stereo not given)	18	-0.4	13	4	0.8	-5%	1.4
CCNc1nc(N)c(C(=O)c2ccc(Cl)s2)s1	23	2.9	-5	-3	0.1	-7%	-2.8
NS(=O)(=O)c1ccc(NC(=O)COc2ccc(C(=O)c3ccc(F)cc3)cc2)cc1	2	2.5	-9	-4	-0.4	-103%	-0.9
CC1(c2ccccc2)NC(=O)N(CC(=O)Nc2cc3c(cc2Br)OCCO3)C1=O (stereo not given)	10	-0.1	5	-3	-0.1	6%	0.5
CC(=O)N1CCC(C(=O)OCc2ccc(Cl)cc2)(c2ccccc2)CC1	-4	-0.6	-11	4	2.3	-2%	-4.5
COC(C[C@@H](O)[C@@H](C)[C@@H](O)COCc1ccccc1)OC	.	?	0	1	-0.5	-8%	.
COc1ccc(N2CCN(CCCNC(=O)Nc3ccccc3)CC2)cc1	.	5.3	-6	-18	0.8	?	3.2
OC(CNCCc1ccc(Cl)cc1)COc1cc(Cl)ccc1Cl (stereo not given)	-104	-6.6	-9	.	3.2	0%	4.4
Cc1ccc2c(c1)C(c1ccccc1)CC(=O)O2 (stereo not given)	-2	3.2	0	13	-5.2	-10%	-1.2
CN(C)C(CNC(=O)c1ccc(S(=O)(=O)NCc2ccco2)cc1)c1ccccc1 (stereo not given)	-6	3.4	0	5	0.1	-7%	-2.6
O=C(Nc1ccnn1C1CCN(C(=O)Cc2ccccc2F)CC1)C1CC1	-2	6.4	5	-3	-2.5	2%	-0.4
CCOC(=O)C1C(=O)OC2(CCOC(C)(C)C2)C1C(=O)OCC (stereo not given)	54	.	3	-1	-3.9	16%	29*
O=C(/C=C/c1ccc(Cl)cc1)NC(=S)Nc1ccc(CN2CCOCC2)cc1	3	.	-8	-20	-5.7	1%	1.0
CCSc1nnc(-c2ccc(S(=O)(=O)N3CCOCC3)cc2)n1CC1CCCO1 (stereo not given)	-6	2.6	14	1	-2.9	-1%	4.0
OC(C#CCN1CCOCC1)(c1ccccc1)C1CCCCC1 (stereo not given)	2	-1.6	4	?	4.4	1%	-1.4
CSc1scc2c1-c1nc(SCC(=O)C(C)(C)C)ncc1CC2	-13	2.5	-2	-3	-7.2	-6%	0.3
O=C(O)c1ccccc1-c1ccccc1C(=O)NCc1ccccc1Cl	-1	2.9	5	3	-3.4	-2%	-0.5
CCOc1cccc(N2C(=O)CC(n3cnc4ccccc43)C2=O)c1 (stereo not given)	4	-0.8	9	-5	-2.3	2%	-2.4
COc1cc(C(=S)N2CCOCC2)ccc1O	-6	5.6	0	-4	3.0	-1%	9.4
CC(=O)c1c(C)[nH]c(=S)c(C#N)c1-c1ccc(F)cc1	-6	-6.1	-4	8	-0.1	-10%	1.0

7 entries already listed, sorted by the number in ALR H2O2 inh, low to high:
mol	ALR H2O2 inh
CN(C)C(CNC(=O)c1ccc(S(=O)(=O)NCc2ccco2)cc1)c1ccccc1 (stereo not given)	-6
COCCCNc1oc(COc2ccc(Cl)cc2Cl)nc1C#N	-3
CCOc1cc(-c2sc(Nc3ccccc3)n[n+]2C)ccc1OC	0
O=C(NCC(c1ccco1)N1CCc2ccccc2C1)c1ccccc1Cl (stereo not given)	3
CC(NC(=S)NNS(=O)(=O)c1cccc([N+](=O)[O-])c1)c1ccccc1 (stereo not given)	11
Oc1c(Cl)cc(Cl)cc1/C=N/c1nccs1	18
CCOC(=O)C1C(=O)OC2(CCOC(C)(C)C2)C1C(=O)OCC (stereo not given)	54

(list continues)
SMILES	ALR H2O2 inh	RanGTP-Impb inh	Beta2AR agonist	Calb FLC	HNF4A DNA FP	Vif A3G	LANA-H2B inh
N#Cc1ccc(CN2C(=O)NC3(CCCCCC3)C2=O)cc1	-3	-7.2	7	-14	0.8	.	-5.5
COc1ccc(C(=O)N2CCc3[nH]nc(-c4ccccc4)c3C2)cc1	1	-2.8	-5	2	-3.2	.	-2.1
COC(=O)C(C)N=Cc1ccccc1 (stereo not given)	0	0.9	8	-12	0.8	2%	-4.0
N#Cc1ccc(C23OCCN2CCn2c3c3ccccc3[n+]2[O-])cc1 (stereo not given)	7	.	1	.	8.6	.	-1.3
CC1=C(C#N)C(=O)OC(C)(C)C1	0	72*	6	-6	-6.1	20%	8.2
O=C(CSc1ccccc1)Nc1ccc(Cl)c(S(=O)(=O)N2CCOCC2)c1	-2	.	-3	.	1.1	-9%	-0.4
Cc1c(C(=O)O)nn(-c2ccccc2)c(=O)c1C#N	.	6.3	9	-1	1.7	17%	-1.0
O=C(O)C(Cc1ccccc1)NS(=O)(=O)c1ccc2c(c1)OCCO2 (stereo not given)	0	-1.4	1	-13	-1.1	-2%	-0.4
CC(=O)c1cc(-c2ccccc2)n(CCC(=O)NCc2cccs2)c1C	-5	5.1	9	6	3.9	0%	5.5
